Bead autofluor – compound fluorescence in toxin protease inhibitor counterscreen; compound autofluorescence counterscreen, microsphere flow cytometry; hits give high values; fluorescence intensity (no concentration beside the values); actives 3.1% (n = 360,000); AID 624483;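 active means at least 3 SD above the mean of all compounds, about 16000 in these data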;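 further: 100 nL of 1 mM stock went into each well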
Sa RN4220 lethal – kills Staphylococcus aureus RN4220 | S. aureus RN4220 growth, OD600, 16 h | inhibition, % (no concentration beside the values) | actives 0.33% (n = 330,000);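 active means z-score of -3 or lower and OD600 up to 0.18 on both plates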;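 further: plate controls were untreated cells for no effect and reference antibiotic for full effect; stock transfer was 100 nL into about 80 µL; one replicate is shown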
Mtb hypoxia rep – inhibitors of hypoxia-regulated fluorescent reporter in Mycobacterium tuberculosis; fluorescence inhibition, % (concentration not given with the values); M. tuberculosis hypoxia-regulated fluorescent reporter, fluorescence; actives 0.1% (n = 300,000);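 active means 35 to 45% if threefold the growth effect, above 45% if 1.5-fold the growth effect; inactive means the rest, general growth blockers included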;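 further: wells of about 50 µL received 100 nL stock; 0% = vehicle wells and 100% = reference inhibitor wells; whole bacteria with a GFP reporter of the hypoxia response; strong numbers were not always called active; many hits fall short of the cut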
Sa ugtP lethal – compounds lethal to S. aureus RN4220 ugtP deletion mutant. growth inhibition, % (concentration not given with the values). actives 0.54% (n = 330,000). OD600 growth, 16 h; some inactives read as strong as hits;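 active means z-score under -3 and OD600 up to 0.15 on both plates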;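 further: plate controls were untreated wells for no effect and antibiotic for full effect; wells of about 80 µL received 100 nL stock; the first replicate is given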
BJeLR lethal – BJeLR cell viability loss | BJeLR (HRASV12) viability, CellTiter-Glo ATP luminescence, 48 h; reference of the scale not given here | inhibition, % (concentration not given with the values) | actives 0.17% (n = 300,000) | AID 1554;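 active means replicate mean above 50%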;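 further: 50 nL library stock added to about 25 µL; numbers are from one replicate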
PrP UTR inh – inhibition of PrP 5' UTR reporter expression; actives 0.35% (n = 340,000); cell-based PrP 5' UTR mRNA reporter, plate reader; inhibition, % (test concentration not listed);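 active means every replicate at 50% or more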;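 further: 0 = median of the neutral control wells; tested in H4 reporter cells; numbers are from one replicate; inactives centre near -14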
Mtb hypoxia rep growth – also measured in Mtb hypoxia rep; calls as there; growth inhibition, %; measured here: M. tuberculosis growth (absorbance);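 0% = vehicle and 100% = reference antibiotic; read after six days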
An asterisk follows results filed as active; . = no result given; & = joins results of further samples.

structure,Bead autofluor,Sa RN4220 lethal,Mtb hypoxia rep,Mtb hypoxia rep growth,Sa ugtP lethal,BJeLR lethal,PrP UTR inh
O=C(NC1CCCC1)C(c1ccccn1)N(C(=O)c1csnn1)c1ccccc1Cl (stereo not drawn),3372,4.7,8,8,5,-13,-9
C[C@]12C[C@@H](O)[C@H](O)CC1=CCC1C2CC[C@]2(C)C(=O)CCC12 (stereo partly drawn),3810,4.3,19,6,-2,.,-5
C=CCNc1nc2c(c(=O)n(C)c(=O)n2C)n1CC(=C)C,5705,1.3,2,3,8,2,-8&-10
CN(C)c1ccc(C(CNC(=O)c2ccc(C#N)cc2)c2c[nH]c3ccccc23)cc1 (stereo not drawn),11190,1.6,-1,-5,8,2,-6
Cc1cc(N(CC(=O)NC2CC2)S(C)(=O)=O)ccc1Br,2455,4.8,10,8,8,-6,-15
CC(=O)NC1=NC(=O)C(C)S1 (stereo not drawn),5912,3.3,.,.,6,-3,-6
CCN(CC)CCN1CCn2c3c(c4cc(C)ccc42)CCCC31 (stereo not drawn),1941,-3.5,9,17,4,6,-14
COc1ccc(-c2nc(N)n(C(=O)c3ccc(C)cc3)n2)cc1,2367,2.7,15,-5,-2,0,-7
COc1cc(NC(=O)CCn2c(=O)[nH]c3ccsc3c2=O)cc(OC)c1,4712,1.4,7,16,3,7,2
COc1ccc(-c2ccnc(SCC(=O)N3CCN(c4ccccc4)CC3)n2)cc1,4476,3.3,8,-2,-9,5,-9
COc1ccccc1CNC(=O)c1ccc2c(=O)n(CC3CCCO3)c(=S)[nH]c2c1 (stereo not drawn),4598,-0.8,-4,8,11,-9,-12
O=c1c(Cl)c(N2CCNCC2)cnn1C12CC3CC(CC(C3)C1)C2,3756,6.6,-6,10,3,-4,-22
CC1CC(C)CN(S(=O)(=O)N2CCC(C(=O)NCCC3=CCCCC3)CC2)C1 (stereo not drawn),4211,1.5,13,4,1,2,-35
O=C(Cn1nnc2ccccc21)Nc1ccc([N+](=O)[O-])cc1,.,2.4,-7,-4,-2,14,-37
CCC(C)C(C(=O)N1CCN(C(=O)OC(C)(C)C)CC1)n1cc(CCCCNC(=O)OC(C)(C)C)nn1 (stereo not drawn),.,3.7,3,0,-2,.,.
Cc1cccc(OCC(=O)NCC(c2cccs2)N2CCOCC2)c1 (stereo not drawn),.,4.4,3,7,0,-2,-29
CC(C)(C)n1nc2c(c1NC(=O)Cc1ccc(Cl)cc1)CS(=O)(=O)C2,5458,-1.3,-1,-1,4,-3,-6
COc1ccc(C2=NOC3(CC(=O)N(c4ccc(C)cc4)C3=O)C2)c(OC)c1 (stereo not drawn),22248*,-0.9,-3,-2,2,.,-19
O=C(O)c1ccc(Nc2ncc([N+](=O)[O-])cc2[N+](=O)[O-])cc1,4580,7.1,20,7,-3,-2,-32
CCC(C)NS(=O)(=O)c1ccc(S(=O)(=O)N(CC(=O)Nc2ccccc2)CC2CCCO2)cc1 (stereo not drawn),8230,-0.5,5,7,6,-25,-14
Nn1c(SCc2ccccc2F)nnc1-c1ccncc1,.,3.6,-7,-5,17,1,.
Cc1c(S(=O)(=O)NC2CCCCCC2)c(=O)n(C)c(=O)n1C,.,1.4,6,0,1,-14,-6
NS(=O)(=O)c1ccc(CCNC(=O)[C@@H]2CCCN2S(=O)(=O)c2ccccc2F)cc1,5880,-1.1,2,14,1,-5,-4
O=C(NCCc1cccnc1)c1cc(COc2ccc(F)cc2Cl)on1,5874,.,.,.,.,13,-9
COc1ccc(/C=C(/NC(=O)c2ccco2)C(=O)Nc2ccc(C(=O)O)cc2)cc1,5652,3.6,-16,-3,2,-13,-17
O=C(Nc1nccs1)C1CCN(S(=O)(=O)c2cnc[nH]2)CC1,3256,3.2,2,0,5,1,2
COc1ccc(/C=C(\NC(=O)c2ccccc2)C(=O)NCCN2CCOCC2)cc1,3303,1.3,-2,-8,0,-5,12
COC(=O)[C@H](Cc1ccccc1)NC(=O)NCCC1=CCCCC1,24338*,2.5,2,0,0,7,-2
Cc1cc(F)ccc1NCc1ccccc1[N+](=O)[O-],4233,6.4,8,5,-5,1,-16
COc1cc2c(cc1OC)C1(CCCCC1)CN(C)C2,.,0.3,-10,3,-2,-8,-22
CCOC(=O)c1c(-c2ccccc2)csc1NC(=O)c1cccc(N2C(=O)CCC2=O)c1,9402,-1.7,-5,6,-4,-1,-32
O=S(=O)(NC1CCCCCC1)c1cccc(Cl)c1,3590,10,14,8,-3,.,-7

Compounds from the list above containing an aryl thioether with sulfur outside any ring (two):
structure,Bead autofluor,Sa RN4220 lethal,Mtb hypoxia rep,Mtb hypoxia rep growth,Sa ugtP lethal,BJeLR lethal,PrP UTR inh
COc1ccc(-c2ccnc(SCC(=O)N3CCN(c4ccccc4)CC3)n2)cc1,4476,3.3,8,-2,-9,5,-9
Nn1c(SCc2ccccc2F)nnc1-c1ccncc1,.,3.6,-7,-5,17,1,.

Copied from the list:
COc1ccc(/C=C(\NC(=O)c2ccccc2)C(=O)NCCN2CCOCC2)cc1 in Mtb hypoxia rep reads -2
COc1ccc(/C=C(/NC(=O)c2ccco2)C(=O)Nc2ccc(C(=O)O)cc2)cc1 in Mtb hypoxia rep reads -16

Remaining list, next part:
structure,Bead autofluor,Sa RN4220 lethal,Mtb hypoxia rep,Mtb hypoxia rep growth,Sa ugtP lethal,BJeLR lethal,PrP UTR inh
O=S(=O)(NCCC1=CCCCC1)c1ccc(F)cc1,5866,2.2,10,2,-2,3,-15
COc1cccc(C2NC(=O)NC(C)=C2C(=O)OCC2CCCCC2)c1 (stereo not drawn),3774,-3.3,-11,5,-8,-8,-28
Cc1cccc(COCC(Cc2ccccc2)N2CCN(C(=O)c3cccc(C)c3)CCC2=O)c1 (stereo not drawn),4482,6.3,8,-2,9,5,-35
O=C1CCC(C(=O)N2CCC(CO)CC2)CN1Cc1ccc(Cl)cc1 (stereo not drawn),4798,2.5,-7,-10,2,-1,-13
Cc1ccc(Cn2nnnc2CN2CCC(c3nc4ccc(Cl)cc4[nH]3)CC2)cc1,7789,15,2,-4,-14,9,14
CCN(C(=O)COc1ccccc1)C1CCCCC1,3503,6.7,5,1,7,21,-4
O=C(c1ccc2c(c1)OCO2)N1CCN(CCN2C(=O)c3cccc4cccc(c34)C2=O)CC1,4256,4.0,12,12,0,.,-24
Cc1csc(=O)n1CCC(=O)OCC(=O)NCc1ccc(F)cc1,5114,2.6,14,-3,4,2,-66
CN(CC(=O)Nc1ccccc1Cl)CC(=O)Nc1ccccc1[N+](=O)[O-],4040,8.0,15,13,4,-7,8
O=C(O)CCC(=O)Nc1cccc(C(=O)Nc2cccc(Cl)c2)c1,4255,-0.9,.,.,1,9,-52
NS(=O)(=O)c1ccc(CNC(=O)CCSCCC(=O)NCc2ccc(S(N)(=O)=O)cc2)cc1,5106,2.1,4,1,-1,0,-10
O=C(Nc1c2c(nn1-c1ccc([N+](=O)[O-])cc1)CS(=O)(=O)C2)c1cccs1,6288,2.3,-1,-12,3,7,-3
CC1CC2=C(C(=O)O1)C(C)Nc1ccccc1N2 (stereo not drawn),2362,1.7,2,4,8,16,3
O=C(N=Nc1c(O)[nH]c(=O)[nH]c1=O)C1COc2cc3ccccc3cc2O1 (stereo not drawn),3404,9.1,-6,6,3,-4,-13
CC(C)N(C(=O)C[n+]1ccsc1N)c1ccccc1,4268,-1.7,-5,10,-3,4,-15
CCN(CC)c1ccc(NC(=O)c2cccc(F)c2)c(C)c1,5575,5.1,7,19,0,9,-7
NC1=NC[C@H](CC2CCCCC2)N1CCc1cc(C(F)(F)F)cc(C(F)(F)F)c1,2990,.,.,.,.,1,-9
COc1cccc(C(CNC(=O)c2ccc(Cl)c(S(=O)(=O)N3CCCC3)c2)N(C)C)c1 (stereo not drawn),3674,3.9,11,15,3,.,-2
CCn1nc(C)cc1C(=O)N1CCCC(N2CCN(c3ccccc3OC)CC2)C1 (stereo not drawn),6083,-1.0,-14,6,-5,1,-6
CC(=O)Nc1ccc(S(=O)(=O)NNC(=O)CCC(=O)NCc2ccccc2)cc1,3965,3.2,-1,14,0,.,-13
Cc1cc(C(=O)CN2C(=O)NC3(CCCCC3)C2=O)c(C)n1C,4485,-6.1,-8,6,-15,4,-20
CCN(CC)S(=O)(=O)c1ccc(N2CCCC2)c(NC(=O)C2=NN(c3ccccc3)C(=O)CC2)c1,5987,2.6,4,6,0,.,-29
CC1C2C(c3ccccc3)N(C)C(=O)N(C)C2N(C)C(=O)N1C (stereo not drawn),2525,3.2,.,.,-3,-4,-3
COc1ccc(C(=O)NNC(=O)c2ccncc2)cc1,1987,1.4,0,-5,7,0,-13
CCOC(=O)[C@@H]1[C@H]2COc3ccccc3[C@@H]2N2C(=O)N(c3cccc(C)c3)C(=O)[C@]12C,4072,.,.,.,.,6,-12
CCOC(=O)c1[nH]c(C)c(CCC(=O)O)c1C,2968&4190,4.2&-5.2,-3&9,10&5,6&-1,-3&4,4&-31
CCN(CC)S(=O)(=O)c1ccc(C)c(NC(=O)COc2ccc(Br)cc2Cl)c1,8912,-0.6,0,5,-1,5,-28
CCOC(=O)C(C#N)=CNc1ccccc1NS(=O)(=O)c1cccc(C(C)=O)c1,.,9.7,6,-6,13,.,.
Cc1cc(NC(=O)CCC(=O)N(CC(=O)NCC2CCCO2)c2ccccc2C)no1 (stereo not drawn),4741,2.0,.,.,6,5,-16
O=c1cc(NS(=O)(=O)c2ccccc2)nc(SCc2ccc(Cl)cc2)[nH]1,11654,-3.0,-5,-9,-13,.,-16
COc1ccc(C2=NOC(C(=O)N3CCN(C(=O)c4ccco4)CC3)C2)cc1OC (stereo not drawn),5212,-2.7,-3,-3,0,-1,-29
Cc1cc(S(=O)(=O)NCc2ccco2)c(C)cc1Cl,5808,5.9,0,2,-3,-5,-3
CCc1ccc(C2=NNC(=Nc3c(C)n(C)n(-c4ccccc4)c3=O)SC2)cc1,4449,3.2,13,4,7,3,25
Cc1ccn2cc(CCNC(=O)C3CC=CCC3C(=O)O)nc2c1 (stereo not drawn),4865,-2.3,12,11,7,-6,-24
COc1ccc(C)cc1NS(=O)(=O)c1cn(C)c(=O)n(C)c1=O,5581,-8.6,13,8,-3,-6,-13
CCOC(=O)c1cnn(-c2cc(C)nc3c(-c4ccccc4)c(C)nn23)c1N,2697,4.2,.,.,-4,-2,6
O=C(Nc1cc(Cl)ccc1N1CCCCC1)c1cccs1,4106,-13,.,.,4,4,-6
O=C(Nc1cc(S(=O)(=O)N2CCOCC2)ccc1N1CCCC1)C1COc2ccccc2O1 (stereo not drawn),4470,4.6,-5,6,12,-7,-29
CC(=O)Nc1ccc(C2(c3ccc(NC(C)=O)cc3)NC(=O)c3ccccc32)cc1,3940,5.5,6,-1,13,0,-15
CCOc1nc(NC(C)C)nc(NC(C)C)n1,9618,2.6,10,4,5,-1,-23
COC(=O)COc1ccc2c(=O)c(Oc3ccccc3)c(C)oc2c1,6896,-1.1,13,12,3,4,-14
COc1ccc(-c2cc(C(F)(F)F)nc(SCc3cccc(C(=O)O)c3)n2)cc1,8106,26,19,6,22,0,-16
CCc1noc(C)c1C(=O)Nc1sc(C(=O)N(C)C)c(C)c1C#N,7183,2.2,-6,0,0,3,-5
CC(=NNC(=O)CCC(=O)Nc1ccc(C)c(C)c1)c1cccs1,.,4.7,0,-4,2,.,.
CC(C)c1ccc(C(C)NCCS(=O)(=O)c2ccc(Cl)cc2)cc1 (stereo not drawn),5681,.,.,.,.,-1,-8
COc1cc(NC(=O)c2cccc([N+](=O)[O-])c2C)ccc1NC(=O)c1ccco1,9528,21,3,0,-1,1,-27
CC1(c2ccc(OCC#N)cc2)C=C(c2ccc(OCC#N)cc2)n2nc(C(F)(F)F)nc2N1 (stereo not drawn),3219,-18,-4,5,-18,5,-19
CNC(=S)N1N=C(c2ccc(Br)cc2)CC1c1ccc(N(C)C)cc1 (stereo not drawn),5318,2.2,4,1,-4,-3,-8
COC(=O)CSc1nc(C)cc(N2CCOCC2)n1,4337,2.8,1,-7,1,-4,-27

Screens deposited in PubChem BioAssay by several laboratories.
